Screens from PubChem BioAssay.
KCNQ2 inh: KCNQ2 potassium channel inhibitors, primary screen, cell-based, CHO-K1, FluxOR thallium flux, B-score (AID 2156). O88943. 20 min; hits give low values; only compounds with negative scores are shown here; some inactives read as strong as hits. B-score at 10 µM. 310,000 tested, 1.1% active;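 active = fluorescence ratio B-score at most minus 3 library SDs, with starting brightness B-score within 2 library SDs, cut at about -5.5 in these data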
Target sequence (O88943 whole entry, looked up): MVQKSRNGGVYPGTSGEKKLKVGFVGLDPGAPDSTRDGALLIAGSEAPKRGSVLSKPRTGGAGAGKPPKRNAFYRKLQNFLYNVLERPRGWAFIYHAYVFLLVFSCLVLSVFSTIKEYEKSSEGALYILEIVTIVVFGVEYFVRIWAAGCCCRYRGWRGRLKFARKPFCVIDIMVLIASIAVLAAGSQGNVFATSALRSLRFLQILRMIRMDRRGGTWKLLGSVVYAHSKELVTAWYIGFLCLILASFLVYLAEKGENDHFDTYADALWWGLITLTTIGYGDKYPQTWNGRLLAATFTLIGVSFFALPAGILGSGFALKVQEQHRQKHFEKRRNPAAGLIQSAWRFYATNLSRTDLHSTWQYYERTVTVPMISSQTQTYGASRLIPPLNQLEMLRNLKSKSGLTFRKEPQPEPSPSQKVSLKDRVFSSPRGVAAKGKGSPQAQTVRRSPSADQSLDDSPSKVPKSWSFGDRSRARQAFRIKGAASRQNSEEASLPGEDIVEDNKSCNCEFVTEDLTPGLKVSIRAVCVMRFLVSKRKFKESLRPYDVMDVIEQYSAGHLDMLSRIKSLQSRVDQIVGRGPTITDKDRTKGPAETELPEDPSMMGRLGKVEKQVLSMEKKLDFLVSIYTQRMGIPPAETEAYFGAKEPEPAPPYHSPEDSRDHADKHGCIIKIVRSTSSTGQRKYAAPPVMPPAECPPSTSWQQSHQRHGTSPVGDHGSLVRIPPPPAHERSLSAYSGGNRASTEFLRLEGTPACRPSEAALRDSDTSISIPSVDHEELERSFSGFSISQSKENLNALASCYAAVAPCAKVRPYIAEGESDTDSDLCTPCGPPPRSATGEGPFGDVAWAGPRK
KCNQ2 inh baseline: further read-out of KCNQ2 inh, marked with its call; B-score; measured here: initial fluorescence intensity artifact check;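 brightness before thallium and not channel activity; 0 = typical well and far values either way flag optical interference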
An asterisk follows results filed as active; i = inactive. A portion of the library; the hit share may differ from the screen's.

entry	compound	KCNQ2 inh	KCNQ2 inh baseline
1	CC(C)(C)c1ccc(C(=O)Nc2ccc(NC(=O)C(=O)O)cc2)o1	i	2.2
2	CN(C)C(=O)CCc1nc(-c2ccc(C(C)(C)C)cc2)no1	i	1.6
3	Cc1ccc(NC(=O)CN2C(=O)NC(C)(c3ccc(Cl)cc3)C2=O)c(Br)c1 (configuration not stated)	i	-1
4	CCC(=O)N1c2ccc(S(=O)(=O)CCC(=O)NCc3cccs3)cc2CC1C (configuration not stated)	i	0.2
5	CCCNC(=O)Nc1nnc(C2CC2)s1	i	1.2
6	O=C1C([N+](=O)[O-])=C(O)c2cccc3cccc1c23	i	-0.33
7	Cc1cc(O)c(C=Nc2ccc(Cl)cn2)c(=O)o1	i	-0.44
8	CCN(CC(=O)Nc1ccc(NC(C)=O)cc1)C(=O)CSc1ncnc2sc(C)c(C)c12	i	-2.1
9	CCn1c(=O)c(=O)[nH]c2cc(C(=O)NC(C)c3ccc(S(N)(=O)=O)cc3)ccc21 (configuration not stated)	i	-0.01
10	CC(C)CNC(=O)c1ccccc1NC(=O)c1ccc(CSc2ccccc2)cc1	i	1.5
11	O=C(CNC(=O)c1ccc(F)cc1)c1ccc(Cl)cc1	i	0.01
12	CCOc1ccc(CNC(=O)CCC(=O)n2nc(C)c3ccccc32)cc1	i	1.1
13	CC(C)(C)C(=O)Nc1ccccc1C(=O)NCc1ccco1	i	-0.94
14	CCc1ccccc1N(CC(=O)N/N=C/c1ccc(OC(=O)OC)c(OC)c1)S(C)(=O)=O	i	0.6
15	CCN(CC)C(=O)CS(=O)(=O)CC(=O)Nc1cc(OCCOC)c(Cl)cc1Cl	i	2.2
16	O=C(CN1C(=O)C2CC=CCC2C1=O)Nc1cc(C(F)(F)F)ccc1N1CCCC1 (configuration not stated)	i	0.69
17	Cc1ccc(N2C(=O)N(CC(=O)Nc3ccc([N+](=O)[O-])cc3)C(=O)C2C)cc1 (configuration not stated)	i	-0.21
18	CC1(c2ccccc2)NC(=O)N(CC(=O)Nc2ccc3c(c2)OCO3)C1=O (configuration not stated)	i	-0.4
19	CC(=O)N1CCN(c2ccc(NC(=O)c3ccccc3Br)cc2Cl)CC1	i	-0.94
20	Cc1cc(C)n(-c2nc(-c3ccc(Cl)c(Cl)c3)cs2)n1	i	-0.49
21	Cc1ccc(Cn2nnc3c(=O)[nH]c(C4CCN(S(=O)(=O)/C=C/c5ccccc5)CC4)nc32)cc1	i	-1.2
22	CCOc1ccc(NC(=O)CN2CCN(CC(=O)c3ccc(OCC)cc3)CC2)cc1	i	-1
23	COc1ccc(/C=C/C(=O)c2ccc3c4c(cccc24)CC3)cc1	i	-2.6
24	O=C(Nc1ccc2ccccc2c1)C(c1ccccc1)C1CCCC1 (configuration not stated)	-5.7*	-1.4*
25	Cc1ccccc1N1C(S)=C(C#N)C(=O)NC1c1cccs1 (configuration not stated)	i	0.03
26	COc1cccc(C(=O)NCC2CCCN2S(=O)(=O)c2cccs2)c1 (configuration not stated)	i	-1.2
27	O=c1c2c(nc3n1CCS3)c1cc(F)ccc1n2Cc1cc(=O)n2cc(Cl)ccc2n1	i	0.14
28	COc1ccc(NC(=O)CN(C2CCCCC2)S(C)(=O)=O)cc1OC	i	0.28
29	CCC1=NN(C(=O)C(=O)Nc2ccc(Br)cc2)C(O)(C(F)(F)F)C1 (configuration not stated)	i	-0.24
30	Cc1cc(Br)ccc1NCc1ccccn1	i	-0.89

Given as labelled records: part of the list above.
#23 COc1ccc(/C=C/C(=O)c2ccc3c4c(cccc24)CC3)cc1
  KCNQ2 inh: i; KCNQ2 inh baseline: -2.6

#29 CCC1=NN(C(=O)C(=O)Nc2ccc(Br)cc2)C(O)(C(F)(F)F)C1 (configuration not stated)
  KCNQ2 inh: i; KCNQ2 inh baseline: -0.24

A draw from above in order of SMILES length, largest number first.
entry	compound	KCNQ2 inh	KCNQ2 inh baseline
18	CC1(c2ccccc2)NC(=O)N(CC(=O)Nc2ccc3c(c2)OCO3)C1=O (configuration not stated)	i	-0.4
23	COc1ccc(/C=C/C(=O)c2ccc3c4c(cccc24)CC3)cc1	i	-2.6
30	Cc1cc(Br)ccc1NCc1ccccn1	i	-0.89

(further entries)
entry	compound	KCNQ2 inh	KCNQ2 inh baseline
31	O=C(CCN1C(=O)C2C3CCC(C3)C2C1=O)OCC(=O)c1ccc(Br)cc1 (configuration not stated)	i	-1.1
32	COCCOC(=O)c1c(C)n(C)c2ccc(OC(=O)C3CC3)cc12	i	-0.09
33	O=C(O)C1CCN(S(=O)(=O)c2cccc3nsnc23)CC1	i	1.9
34	N/C(=N\OC(=O)Cc1cccs1)c1ccc(Br)cc1	i	1.1
35	O=C(CSc1nnc(-c2ccncc2)o1)N1CCCCCC1	i	-1
36	N#Cc1c(-c2ccncc2)cc(-c2ccc(F)cc2)nc1N	i	1.1
37	Cc1ccc(-c2nc(CN(C)Cc3cccc4cnccc34)c(C)o2)s1	i	-0.02
38	COc1ccccc1CC(=O)N1CCC(n2nccc2NC(=O)C2CCOC2)CC1 (configuration not stated)	i	0.73
39	Cc1oc(-c2ccccc2F)nc1CS(=O)(=O)CC(=O)NC1CCCC1	i	-0.62
40	Cc1onc(-c2ccccc2)c1C(=O)Nc1ccccc1NC(=O)c1c(-c2ccccc2)noc1C	i	1.1
41	CN(C)/C=N/c1c(C#N)cnn1C	i	1.4
42	NS(=O)(=O)c1ccc(NC(=S)Nc2ccc(C(=O)N3CCCCC3)cc2)cc1	i	0.27
43	COCCNC(=O)c1ccc2c(c1)NC(=O)CS2	i	2.5
44	O=C(CNC(=O)Cc1ccccc1)NCC(=O)OCC(=O)c1cccc2ccccc12	i	0.82
45	Fc1ccc(CSc2nnc(-c3ccco3)o2)cc1	i	1.2
46	CCC(C(=O)Nc1ccc(C(=O)O)cc1NC(=O)C(CC)c1ccccc1)c1ccccc1 (configuration not stated)	i	1.3
47	O=C1C(Cl)=C(NCCCO)C(=O)c2ccccc21	i	0.21
48	Brc1ccc(-c2noc(CCc3ccccc3)n2)o1	i	-0.32
49	c1cc2nc(C34CC5CC(CC(C5)C3)C4)[nH]c2cn1	i	2.7
50	CCN1CCN(c2ccc(S(=O)(=O)N3CCCCC3)cc2NC(=O)c2cc3ccccc3o2)CC1	i	0.52
51	O=C(O)c1ccccc1-c1ccccc1C(=O)Nc1nc2ccccc2s1	i	0.11
52	CCCc1cc(=O)[nH]c(SCC(=O)N(C)CC(=O)Nc2ccc(C)cc2)n1	i	1.1
53	N/C(COc1cccc(Cl)c1)=N\O	i	0.82
54	COc1cc(OC)cc(C(=O)N2CC(=O)Nc3ccccc32)c1	i	0.44
55	CNC(=O)CSc1nnc(-c2cnccn2)n1C	i	0.05
56	CCOC(=O)c1ccc(/C=N/O)[n+](Cc2ccccc2)c1	i	6.1
57	Cc1cc(C)nc(NC2=NCC(=O)N2c2ccccc2Br)n1	i	1.3
58	CCCOc1ccc(-c2c(C(=O)N/N=C/c3ccsc3)nnn2-c2nonc2N)cc1	i	1.2
59	Cc1ccc(C)c(OCCSc2nnc(C)c(=O)[nH]2)c1	i	1.8
60	Cc1nnc(NC(=O)c2ccc(C)c(S(=O)(=O)N3CCOCC3)c2)s1	i	1
61	CCOc1ccc2nc(COC(=O)c3ccco3)c(C(C)=O)[n+]([O-])c2c1	i	1.7
62	NC1=NC[C@H](c2ccccc2)N1CC1CCCCC1	i	-0.98
63	Cn1nc([N+](=O)[O-])nc1Sc1cccc2cccnc12	i	2.1
64	CCOP(=O)(OCC)c1nc(-c2ccc(C)cc2)oc1N1CCOCC1	i	0.05
65	Cc1nnsc1-c1c(C(=O)N2CCOCC2)c(C)nn1-c1ccc(Cl)cc1	i	-1.1
66	O=C1CCCN1CC(O)CS(=O)(=O)c1ccc(Cl)cc1 (configuration not stated)	i	0.17
67	COc1ccc(C(=O)Nc2cc(C(F)(F)F)ccc2-n2cncn2)cc1	i	1.8
68	Cc1nc(Nc2ccccc2)sc1C(=O)c1ccccc1	i	-0.06
69	CC(=O)Nc1ccc(S(=O)(=O)N(C)CC(=O)N/N=C/c2cccc(O)c2)cc1	i	1.8
70	CC1(C)c2ccccc2N2CC(=O)NC21/C=C/c1ccco1 (configuration not stated)	i	0.31
71	O=c1cc(CN2CCN(c3ccccn3)CC2)nc2sccn12	i	0.02
72	O=C(N/N=C/c1ccccc1OC(F)F)C1=COCCO1	i	-0.6
73	O=C(O)CNC(=S)N(Cc1cccs1)C1CCCCC1	i	0.18
74	COc1ccccc1P(=O)(Cc1ccccc1[N+](=O)[O-])c1ccccc1 (configuration not stated)	i	0.08
75	O=C1CC(N(O)C2CC(=O)N(Cc3ccccc3)C2=O)C(=O)N1Cc1ccccc1 (configuration not stated)	i	-0.52

Overlap with the part before: seven compounds, then new ones.
entry	compound	KCNQ2 inh	KCNQ2 inh baseline
69	CC(=O)Nc1ccc(S(=O)(=O)N(C)CC(=O)N/N=C/c2cccc(O)c2)cc1	i	1.8
70	CC1(C)c2ccccc2N2CC(=O)NC21/C=C/c1ccco1 (configuration not stated)	i	0.31
71	O=c1cc(CN2CCN(c3ccccn3)CC2)nc2sccn12	i	0.02
72	O=C(N/N=C/c1ccccc1OC(F)F)C1=COCCO1	i	-0.6
73	O=C(O)CNC(=S)N(Cc1cccs1)C1CCCCC1	i	0.18
74	COc1ccccc1P(=O)(Cc1ccccc1[N+](=O)[O-])c1ccccc1 (configuration not stated)	i	0.08
75	O=C1CC(N(O)C2CC(=O)N(Cc3ccccc3)C2=O)C(=O)N1Cc1ccccc1 (configuration not stated)	i	-0.52
76	COc1cccc(C2c3c(-c4cc(Cl)c(C)cc4O)n[nH]c3C(=O)N2Cc2cccnc2)c1 (configuration not stated)	i	0.03
77	CSc1ccc(/C=N/n2c(C3CCCCC3)n[nH]c2=S)cc1	i	-1.7
78	CCCOc1ccc(C(=O)O/N=C(\CC)c2ccc(C)cc2)cc1	i	-1.5
79	COC(=O)C(CO)NC(=O)C1CCCN1C(=O)CNC(=O)OCc1ccccc1 (configuration not stated)	i	0.04
80	CCc1ccc(NC(=S)NC2CC3CCCC(C2)N3Cc2ccccc2)cc1 (configuration not stated)	i	-1.4
81	O=C(OCC(=O)N(CCc1ccccc1)Cc1ccccc1)c1ccccc1[N+](=O)[O-]	-6.8*	-0.75*
82	CCOC(=O)C1(Cc2ccccc2C)CCCN(C(=O)c2sccc2C)C1 (configuration not stated)	i	-0.6
83	COC(=O)/C=C/c1ccccc1S(=O)(=O)N(Cc1ccccc1)Cc1ccco1	i	0.13
84	Cn1nc(-c2ccc(Cl)cc2)c2cc(C(=O)N3CCN(c4ccccn4)CC3)sc21	i	-1.4
85	CC1CCN(C(NC(=O)c2ccco2)C(=O)c2ccccc2)CC1 (configuration not stated)	i	-0.09
86	CC1CCN(Cc2nnnn2CCCC(=O)NCC(C)(C)N2CCOCC2)CC1	i	3.6
87	O=C(Nc1ccc(Cl)cc1F)c1cccc2ccccc12	i	-0.05
88	COc1ccc(NC(=O)c2cc3ccccc3cc2O)cc1	i	-0.96
89	C/C(=N\Nc1cc(C)nc(-c2ccccc2O)n1)c1ccccc1O	i	0.64
90	Cc1nc(N2CCC(C)CC2)c2c(C)c(C(=O)Nc3cc(F)ccc3C)sc2n1	i	-0.45
91	OCCN(CCO)Cc1ccc(Br)cc1	i	1.4
92	CC(Sc1nc2c([nH]c3ccccc32)c(=O)n1C)c1ccccc1 (configuration not stated)	i	-0.24
93	CCN(CC)CCN(CC(=O)N(C1CCCCC1)C1CCCCC1)C(=O)c1ccco1	i	1.4
94	CC(=O)OC1C(OC(C)=O)N(C(C)=O)C(=O)N1C(C)=O (configuration not stated)	i	-2.5
95	COCCn1ccc(O)c(Cc2ccc(Cl)cc2)c1=O	i	-0.65
96	COc1cccc(NC(=O)c2nnn(CC(=O)Nc3cc(C)cc(C)c3)c2N)c1	i	0.08
97	Cc1c(OCC(=O)NCCN2CCOCC2)ccc2c1oc(=O)c1ccccc12	i	0.46
98	CC(OC(=O)CC1CCCCC1)C(=O)Nc1ccc(S(N)(=O)=O)cc1 (configuration not stated)	i	0.17
99	CCN(CC(=O)NCc1ccc(F)cc1)C(=O)COc1ccc2ccccc2c1	i	-0.23
100	CCOC(=O)NC1Cc2ccccc2C1Sc1ccccn1 (configuration not stated)	i	-0.12
101	O=C(CNc1cccc(C(F)(F)F)c1)N/N=C/c1ccccc1C(=O)O	i	-0.56
102	COC(=O)c1ccc(C2/C(=C(/O)c3ccc(OC)cc3)C(=O)C(=O)N2Cc2ccco2)cc1 (configuration not stated)	i	-0.9
103	CC(NC(=S)NC1CCCCC1)C(c1ccccc1)N1CCOCC1 (configuration not stated)	i	2
104	COc1ccc(/C=C/C(=O)N2CCN(C)CC2)cc1OC	i	0.74
105	COc1ccc(CCNS(=O)(=O)c2ccc(F)cc2)cc1OC	i	1.1
106	COc1ccc(OC)c(CNC(=O)CCn2c(=O)c3cccn3c3ccc(F)cc32)c1	i	-0.07
107	COc1ccc(C)cc1NC(=O)C(OC(=O)CNC(=O)c1ccc(Br)cc1)c1ccccc1 (configuration not stated)	i	0.77
108	CN(CCc1ccccn1)Cc1ccc(Cl)c(Cl)c1	i	2.1
109	O=C(CNC1CCCCC1)NN=C(c1ccccc1)c1ccccc1	i	0.15
110	Cc1ccc(C)c(-n2cc(CN3CCNC(=O)CC3)c(-c3ccccc3)n2)c1	i	2.1
111	O=C(O)CCCC(=O)Nc1ccc(OCc2nc3ccccc3s2)cc1	i	1.6
112	O=C(Nc1ccn(Cc2c(F)c(F)c(F)c(F)c2F)n1)c1cccc(Cn2cc([N+](=O)[O-])cn2)c1	i	0.17
113	COC(=O)C1C(=O)c2c([nH]c(C(=O)OC3CCCCC3)c2C)CC1C (configuration not stated)	i	-0.24
114	C/C(=N/N1CCN(Cc2ccccc2)CC1)c1ccc(Br)cc1	i	1.2
115	O=[N+]([O-])c1ccc(Cl)c(NC2=NCCCCC2)c1	i	-0.05
116	CC1CN(C(=O)CCC(=O)NCCc2ccccc2)c2ccccc2O1 (configuration not stated)	i	-2.1
117	Cn1c(SCC2CCCO2)nnc1-c1ccncc1 (configuration not stated)	i	1.2
